MEP2 TOR yeast = modulators of MEP2-GFP levels in yeast, primary screen, S. cerevisiae, multiplex flow cytometry, MLPCN library; 330,000 compounds, 0.51% hits; GFP response vs DMSO, % at 10 µM; S. cerevisiae MEP2-GFP strain, 3 h; 100% = DMSO control level;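 active means GFP response versus DMSO above a set limit, roughly screen mean plus 3 SD, cut at about 180% in these data; inconclusive means fewer than 70 cells counted for a yeast strain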;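 further: median GFP fluorescence of the barcode-gated MEP2-GFP cells per well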
LAP4-GFP MLPCN = modulators of LAP4-GFP expression in yeast, primary screen, S. cerevisiae, multiplex flow cytometry, MLPCN library | 3 h; median GFP as percent of DMSO wells | GFP response vs DMSO, % at 10 µM | 320,000 compounds, 0.34% hits | AID 2023, 2009;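 active means GFP response vs DMSO above a set limit, about the screen mean plus 3 SD, cut at about 150% in these data; inconclusive means under 70 cell events counted for the yeast strain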
ZTA counter = ZTA (EBV) inhibition in EBNA-1 counter-screen | 320,000 compounds, 0.15% hits | inhibition, % at 11 µM | ZTA-DNA binding, fluorescence polarization | P03206; in the data active means inhibition above about 33%
EBNA-1 inh = EBNA-1 DNA-binding inhibitors, primary screen, biochemical, fluorescence polarization; inhibition, % at 14.8 µM; 300,000 compounds, 0.34% hits; AID 1950, 2009; in the data active means inhibition above about 28%
proCasp3 act = activators of human procaspase-3 D3A mutant, primary screen, biochemical, absorbance, PC-3 D3A mutant, single concentration; activation, % at 8.5 µM; Caspase-3 (Homo sapiens), P42574; 330,000 compounds, 0.11% hits; recombinant procaspase-3 D3A, Ac-DEVD-pNA absorbance 405 nm;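 active means activation above the mean of all tested compounds plus 3 SD, cut at about 21% in these data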;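 further: 0% = DMSO alone and 100% = DMSO wells spiked with extra 5 µM PC-3 D3A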
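Assay system: Procaspase-3 D3A mutant, all three cleavage aspartates alanine. Buffer or medium: Zinc-free HEPES saline buffer with Triton X-100. Times: 1 h compound preincubation, 2 h substrate hydrolysis at 25 °C. Measured by: 405 nm absorbance of p-nitroaniline, reads at 0 and 120 min. Read-out basis: percent activation relative to control range. Replicates: singlicate.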
RPL19A TOR yeast = RPL19A-GFP expression modulators in yeast, primary screen, cell-based, S. cerevisiae, multiplex flow cytometry, MLPCN | 330,000 compounds, 0.3% hits | percent response vs DMSO, % at 10 µM | AID 2025, 2009 | S. cerevisiae RPL19A-GFP strain, 3 h; active compounds read low;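 active means percent response vs DMSO below 50%; inconclusive means fewer than 70 events counted for the yeast strain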;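 further: median channel GFP fluorescence of the barcoded RPL19A-GFP strain; ratio of sample median GFP to plate DMSO average so 100% = DMSO; lower means less RPL19A-GFP as with rapamycin TOR inhibition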
procasp7 counter = procaspase-7 activators, primary screen, counter-screen for procaspase-3 activator project, biochemical, absorbance, HTS, human; Caspase-7 (Homo sapiens), P55210; recombinant procaspase-7, Ac-DEVD-pNA absorbance 405 nm; D23A/D198A/D206A triple mutant, cannot self-cleave; scale: DMSO 0, 5 µM enzyme 100; activation, % at 8.5 µM; 330,000 compounds, 0.093% hits; AID 463210, 2010;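 active means percent activation above the screen-wide mean plus 3 SD, cut at about 25% in these data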
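Assay system: Uncleavable procaspase-7 mutant enzyme / Input: 2 µM procaspase-7 mutant as dispensed / Dosing: single nominal 8.5 µM compound dose, 0.8% DMSO final / Timing: 1 h enzyme–compound preincubation and 2 h substrate reaction, both 25 °C / Detection: p-Nitroaniline absorbance at 405 nm, read at 0 and 120 min / Replication: singlicate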
Numbers without * were called inactive; ? = inconclusive; . = not tested or not shown; & = joins results of further samples.

| SMILES | MEP2 TOR yeast | LAP4-GFP MLPCN | ZTA counter | EBNA-1 inh | proCasp3 act | RPL19A TOR yeast | procasp7 counter |
| --- | --- | --- | --- | --- | --- | --- | --- |
| NCCNCCNCCN | 91.3 | 97.8 | 4.3 | -8.4 | 1.7 | 100.2 | -7.0 |
| CN1CCc2cccc3c2C1Cc1ccc(O)c(O)c1-3 (stereo not given) | 85.2 | 100.7 | 0.5 | 7.5 | -24.8 | 94.3 | -26.3 |
| CNC1(C)[C@H]2CC[C@H](C2)C1(C)C (stereo not given in full) | 104.1 | 95.7 | . | . | 4.6 | 106.9 | 7.7 |
| CC(C)(c1cc(Br)c(O)c(Br)c1)c1cc(Br)c(O)c(Br)c1 | ? | ? | 3.9 | . | -3.0 | ? | -9.2 |
| CC1CCc2cc(F)cc3c(=O)c(C(=O)O)cn1c23 (stereo not given) | 88.0 | 106.1 | 8.4 | 10.0 | 8.9 | 82.3 | 9.1 |
| C[C@@H]1C[C@H]2[C@@H]3C[C@H](F)C4=CC(=O)C=C[C@]4(C)[C@@]3(Cl)[C@@H](O)C[C@]2(C)[C@H]1C(=O)COC(=O)C(C)(C)C | 96.1 | 93.0 | 3.6 | -6.5 | 3.5 | 100.2 | 0.4 |
| Cc1cc(C(=O)NNC(=S)NCc2ccco2)n(C)n1 | 97.2 | 99.7 | 3.3 | 10.9 | -7.7 | 107.0 | -4.9 |
| CCOC(=O)[C@H](CCc1ccccc1)N[C@@H](C)C(=O)N1[C@H](C(=O)O)C[C@@H]2CCC[C@@H]21 | 103.4 | 104.5 | 16.2 | 6.5 | -6.2 | 107.5 | 1.0 |
| Nc1ccc(S(=O)(=O)Nc2ccc(Cl)nn2)cc1 | 97.0 | 99.9 | -4.4 | -7.8 | 1.2 | 99.3 | 4.9 |
| COC(=O)C1=C(C)NC(C)=C(C(=O)OC(C)C)C1c1cccc2nonc12 (stereo not given) | 97.3 | 109.3 | 8.8 | 5.5 | 2.7 | 102.4 | -7.2 |
| CCCC(CCC)C(=O)O | 99.2&94.9 | 130.3&100.7 | 5.3&-0.5 | 10.9&-0.8 | -1.2&1.2 | 100.4&101.2 | 10.6&-0.3 |
| Clc1ccccn1 | 93.5 | 99.8 | 8.1 | . | -8.0 | 96.1 | 0.7 |
| CCc1cn(C2CC(O)C(CO)O2)c(=O)[nH]c1=O (stereo not given) | 109.0 | 99.5 | -1.2 | . | -4.5 | 96.8 | -11.2 |
| Cc1cc(N)n(-c2ccccc2)n1 | 103.5 | 100.4 | 8.5 | -9.4 | 6.1 | 103.5 | -3.4 |
| C[C@H]1O[C@@H](O[C@H]2[C@@H](O)C[C@H](O[C@H]3[C@@H](O)C[C@H](O[C@H]4CC[C@@]5(C)[C@H](CC[C@@H]6[C@@H]5C[C@@H](O)[C@]5(C)[C@@H](C7=CC(=O)OC7)CC[C@]65O)C4)O[C@@H]3C)O[C@@H]2C)C[C@H](O)[C@@H]1O | 97.3&92.5 | 90.1&90.1 | 13.8&0.7 | 4.0&-8.5 | 1.2&0.7 | 94.1&100.8 | 1.7&2.9 |
| O=C1Nc2ccc(Cl)cc2[C@@](C#CC2CC2)(C(F)(F)F)O1 | 90.0 | 110.3 | 4.7 | 3.0 | 8.1 | 95.0 | 3.4 |
| CC1=NC(C)(C)Cc2ccccc21 | 98.8 | 98.2 | 3.2 | 1.1 | 0.6 | 104.3 | 4.1 |
| CCCCCN=C(N)N/N=C/c1c[nH]c2ccc(OC)cc12 | 98.6 | 97.8 | -3.1 | 0.2 | 0.5 | 106.0 | -2.5 |
| CCC1NC(=O)c2cc(S(N)(=O)=O)c(Cl)cc2N1 (stereo not given) | 109.5 | 103.5 | 9.0 | 7.1 | 1.4 | 98.1 | -5.3 |
| C#C[C@]1(O)CC[C@H]2[C@@H]3CCC4=CC(=O)CC[C@@H]4[C@H]3CC[C@@]21C | 96.1 | 117.9 | 9.8 | 0.0 | -3.3 | 108.8 | 7.3 |
| CCCn1c(=O)[nH]c(=O)c2[nH]cnc21 | 93.7 | 108.3 | 0.3 | -3.6 | 4.8 | 101.0 | 15.9 |
| OC[C@H]1O[C@@H](O[C@@H]2[C@@H](CO)O[C@@](O)(CO)[C@H]2O)[C@H](O)[C@@H](O)[C@H]1O | 99.8 | 113.1 | -3.4 | -0.2 | 8.6 | 104.0 | 2.9 |
| O=C1C(c2c(O)[nH]c3ccccc23)=Nc2ccccc21 | 97.3 | 107.4 | 1.3 | -1.8 | 0.8 | 104.0 | 5.3 |
| C[C@]12CC[C@@H]3c4ccc(O)cc4CC[C@H]3[C@@H]1CC[C@@H]2O | 91.7 | 141.9 | 15.2 | -1.1 | 3.5 | 89.5 | 6.2 |
| C#C[C@]1(OC(C)=O)CCC2C3CCC4=CC(=O)CC[C@@H]4C3CC[C@@]21C (stereo not given in full) | 91.3 | 101.6 | 7.7 | -3.8 | 6.2 | 99.7 | -1.9 |
| COc1ccc(/C=C(\C#N)C(=O)NCCCn2ccnc2)cc1 | 98.0 | 97.0 | 15.4 | 6.0 | 3.3 | 99.9 | -1.5 |
| COc1ccc2c(c1OC)C(=O)OC2C1c2c(cc3c(c2OC)OCO3)CCN1C (stereo not given) | 94.2&107.5&96.7 | 113.0&98.7&123.4 | -6.5&10.1&-1.3 | 0.8&-2.4&-0.5 | -2.9&11.5&2.1 | 98.6&92.0&94.2 | -1.2&1.3&0.9 |
| CN(C)CC/C=C1\c2ccccc2COc2ccccc21 | 88.8 | 118.9 | -9.0 | -8.2 | 8.1 | 103.1 | -9.3 |
| Brc1ccccc1-c1ccccc1 | 98.2 | 103.1 | -15.0 | . | -1.7 | 100.6 | 7.8 |
| CC(=O)OCC(=O)NCCCOc1cccc(CN2CCCCC2)c1 | 95.5 | 106.1 | 20.2 | 1.3 | -2.5 | 100.4 | -2.8 |
| COC(=O)CCCC(=O)OC | 100.8 | 95.0 | . | . | 1.1 | 102.9 | 13.2 |

Arranged by molar mass (rising): 14 of the compounds above
| SMILES | MEP2 TOR yeast | LAP4-GFP MLPCN | ZTA counter | EBNA-1 inh | proCasp3 act | RPL19A TOR yeast | procasp7 counter |
| --- | --- | --- | --- | --- | --- | --- | --- |
| COC(=O)CCCC(=O)OC | 100.8 | 95.0 | . | . | 1.1 | 102.9 | 13.2 |
| CC1=NC(C)(C)Cc2ccccc21 | 98.8 | 98.2 | 3.2 | 1.1 | 0.6 | 104.3 | 4.1 |
| CCCn1c(=O)[nH]c(=O)c2[nH]cnc21 | 93.7 | 108.3 | 0.3 | -3.6 | 4.8 | 101.0 | 15.9 |
| Brc1ccccc1-c1ccccc1 | 98.2 | 103.1 | -15.0 | . | -1.7 | 100.6 | 7.8 |
| O=C1C(c2c(O)[nH]c3ccccc23)=Nc2ccccc21 | 97.3 | 107.4 | 1.3 | -1.8 | 0.8 | 104.0 | 5.3 |
| C[C@]12CC[C@@H]3c4ccc(O)cc4CC[C@H]3[C@@H]1CC[C@@H]2O | 91.7 | 141.9 | 15.2 | -1.1 | 3.5 | 89.5 | 6.2 |
| CCC1NC(=O)c2cc(S(N)(=O)=O)c(Cl)cc2N1 (stereo not given) | 109.5 | 103.5 | 9.0 | 7.1 | 1.4 | 98.1 | -5.3 |
| C#C[C@]1(O)CC[C@H]2[C@@H]3CCC4=CC(=O)CC[C@@H]4[C@H]3CC[C@@]21C | 96.1 | 117.9 | 9.8 | 0.0 | -3.3 | 108.8 | 7.3 |
| CCCCCN=C(N)N/N=C/c1c[nH]c2ccc(OC)cc12 | 98.6 | 97.8 | -3.1 | 0.2 | 0.5 | 106.0 | -2.5 |
| COc1ccc(/C=C(\C#N)C(=O)NCCCn2ccnc2)cc1 | 98.0 | 97.0 | 15.4 | 6.0 | 3.3 | 99.9 | -1.5 |
| C#C[C@]1(OC(C)=O)CCC2C3CCC4=CC(=O)CC[C@@H]4C3CC[C@@]21C (stereo not given in full) | 91.3 | 101.6 | 7.7 | -3.8 | 6.2 | 99.7 | -1.9 |
| OC[C@H]1O[C@@H](O[C@@H]2[C@@H](CO)O[C@@](O)(CO)[C@H]2O)[C@H](O)[C@@H](O)[C@H]1O | 99.8 | 113.1 | -3.4 | -0.2 | 8.6 | 104.0 | 2.9 |
| COc1ccc2c(c1OC)C(=O)OC2C1c2c(cc3c(c2OC)OCO3)CCN1C (stereo not given) | 94.2&107.5&96.7 | 113.0&98.7&123.4 | -6.5&10.1&-1.3 | 0.8&-2.4&-0.5 | -2.9&11.5&2.1 | 98.6&92.0&94.2 | -1.2&1.3&0.9 |
| C[C@H]1O[C@@H](O[C@H]2[C@@H](O)C[C@H](O[C@H]3[C@@H](O)C[C@H](O[C@H]4CC[C@@]5(C)[C@H](CC[C@@H]6[C@@H]5C[C@@H](O)[C@]5(C)[C@@H](C7=CC(=O)OC7)CC[C@]65O)C4)O[C@@H]3C)O[C@@H]2C)C[C@H](O)[C@@H]1O | 97.3&92.5 | 90.1&90.1 | 13.8&0.7 | 4.0&-8.5 | 1.2&0.7 | 94.1&100.8 | 1.7&2.9 |

From PubChem

An excerpt; the hit share may differ from the screen's.
